# Cruzain noTriton: qHTS Assay for Promiscuous and Specific Inhibitors of Cruzain (without detergent). Cruzipain (Trypanosoma cruzi), P25779. purified cruzain, Z-FR-AMC fluorescence, no detergent. Potency, µM, without a hit: max response, negative = inhibition, usual class: inhibitors. 200,000 tested, 2.3% active; active = well fitted curve in the direction sought with a large enough effect; inconclusive = small, poorly fitted or top-dose-only effect, or another doubt; inactive = no such curve, though single readings can be large; an effect the other way counts as inactive or inconclusive;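 also: plate controls were enzyme without inhibitor for no effect and buffer without enzyme for full effect; nearly all actives have a fitted effect of over 40% in size; top concentration of the series not given in the record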
# Target sequence (P25779 123-467 limits assumed): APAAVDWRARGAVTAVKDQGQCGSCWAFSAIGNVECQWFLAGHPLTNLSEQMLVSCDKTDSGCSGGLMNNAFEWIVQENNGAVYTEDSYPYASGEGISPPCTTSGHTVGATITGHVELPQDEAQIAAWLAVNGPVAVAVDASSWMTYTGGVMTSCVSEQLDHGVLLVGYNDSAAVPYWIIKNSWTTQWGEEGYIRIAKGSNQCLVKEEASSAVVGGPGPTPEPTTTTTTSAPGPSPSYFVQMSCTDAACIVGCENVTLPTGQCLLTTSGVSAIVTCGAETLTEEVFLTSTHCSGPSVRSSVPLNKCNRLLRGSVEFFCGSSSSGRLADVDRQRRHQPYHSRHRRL
#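 Detergent-free condition (0.00005% Triton X-100) in acetate buffer pH 5.5 with DTT. 1.5 nM enzyme and compound were pre-mixed 15 min, then 2 uM Z-FR-AMC substrate added; reaction progress from fluorescence change between first and third reads (60 s).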
# RE007 growth inh: qHTS Assay for Inhibitors of the HIV-1 protein Vpr | S. pombe RE007 Vpr strain, BacTiter-Glo ATP luminescence, 24 h; control for the full effect not named in the record | Potency, µM (series often up to 92.2 µM), inactives show top-dose activity change, negative = less growth | 360,000 tested, 0.21% active; active = well fitted falling curve with a large enough effect; inconclusive = small, poorly fitted or top-dose-only effect; inactive = no such curve, though single readings can be large or run the other way;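 also: % is scaled to controls: 0 for no effect and ±100 for the full control effect; nearly all actives have a fitted effect of over 50% in size; the assay follows cell death caused by Vpr and the record does not say whether a fall means rescue or toxicity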
#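 Fission yeast RE007 carrying one integrated HIV-1 vpr copy, seeded at OD 0.01 in PMG+AL medium with 23 nL pinned compound. Grown 24 h at 30 degrees; viability read by BacTiter-Glo luminescence after 5 min.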
# NS1 inh: qHTS Assay for Inhibitors of Influenza NS1 Protein Function. S. cerevisiae slowed by influenza A NS1, growth recovery by OD600. Potency, µM (doses to about 46.1 µM), inactives show top-dose activity, positive = more growth. AID 2326, 2010. 270,000 tested, 0.4% active; also: actives are rising curves; nearly all actives have a fitted effect of over 50% in size
#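 OD600 was taken as the measure of yeast growth restored by compound in an NS1-expressing S. cerevisiae strain. Cells had been washed out of glucose medium and diluted 1:100 into galactose -URA medium, pH 6.0.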
# 2A StopGo: High Throughput Screening for Foot and Mouth Disease Virus Antivirals | Potency, µM (top dose mostly 57.9 µM), without a hit: top-dose signal change, negative = less light | human cells with a luciferase reporter of 2A StopGo recoding; control for the full effect not named in the record | 410,000 tested, 1.2% active | AID 1159524, 2015; active = well fitted falling curve with a large enough effect; inconclusive = small, poorly fitted or top-dose-only effect; inactive = no such curve, though single readings can be large or run the other way; tested in HEK293T cells; also: % is scaled to controls: 0 for no effect and ±100 for the full control effect; nearly all actives have a fitted effect of over 45% in size; luciferase light after 4 h
# MARV entry inh: qHTS for inhibitors of binding or entry into cells for Marburg Virus. Marburg virus pseudotyped entry inhibition, cell reporter; control for the full effect not named in the record; about a third of the inactives were read at about 46 µM. 300,000 tested, 1.8% active. AID 540276, 2011. Potency, µM (series often up to 37.8 µM), without a hit: at the top dose activity change, negative = inhibition, hits mostly inhibitors; active = well fitted inhibition curve with a large enough effect; inconclusive = small, poorly fitted or top-dose-only effect, or effect the other way; inactive = flat fitted curve, though single readings scatter; tested in HEK293 cells; about a fifth of its hits are not listed in these tables; also: % is scaled to controls: 0 for no effect and ±100 for the full control effect; luciferase read-out
# SARS PLP yeast: qHTS of Yeast-based Assay for SARS-CoV PLP; Potency, µM (top dose mostly 32.9 µM), without a hit: at the top dose activity, positive = growth rescue; AID 485353, 2010; 330,000 tested, 0.19% active; S. cerevisiae expressing SARS-CoV PLpro, growth rescue; control for the full effect not named in the record; also: 0% is about no effect; nearly all actives have a fitted effect of over 55% in size; growth read by luminescence after 48 h
# Lassa entry inh: qHTS for Inhibitors of binding or entry into cells for Lassa Virus | 300,000 tested, 1.2% active | Lassa virus pseudotype entry inhibition, cell reporter; control for the full effect not named in the record | Potency, µM (doses to about 37.9 µM), for the others: top-dose activity change, negative = inhibition, most hits filed as inhibitors | AID 540256, 2011; active means well fitted inhibition curve with a large enough effect; inconclusive means small, poorly fitted or top-dose-only effect, or effect the other way; inactive means flat fitted curve, though single readings scatter; tested in HEK293 cells; also: % is scaled to controls: 0 for no effect and ±100 for the full control effect; nearly all actives have a fitted effect of over 50% in size; luciferase read-out
# Cruzain inh Det: qHTS Assay for Promiscuous and Specific Inhibitors of Cruzain (with detergent). Cruzipain (Trypanosoma cruzi), P25779. purified cruzain, Z-FR-AMC fluorescence, 0.01% Triton. Potency, µM, for inactives: max response, negative = inhibition, actives largely listed as inhibitors. 200,000 tested, 0.43% active. AID 1478, 2009; active = well fitted curve in the direction sought with a large enough effect; inconclusive = small, poorly fitted or top-dose-only effect, or another doubt; inactive = no such curve, though single readings can be large; an effect the other way counts as inactive or inconclusive;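 also: plate controls were neutral wells for no effect and buffer without enzyme for full effect; nearly all actives have a fitted effect of over 40% in size; top concentration of the series not given in the record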
#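 Z-FR-AMC hydrolysis (2 uM substrate) by cruzain (1.5 nM) monitored kinetically at ex 360/em 450 nm after 15 min room-temperature compound exposure; 0.01% Triton X-100, pH 5.5, 5 mM DTT.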
# * hit, by the source's call; ? = inconclusive; nt = no result given; & = joins results of further samples; [ ] = dose if it differs, or a comment. Unless noted, calls follow the shape of the dose curve; as a rule, active means well fitted rising curve with a large enough effect; inconclusive means small, poorly fitted or top-dose-only effect; inactive means no such curve, though single readings can be large or run the other way. Potency is read from the fitted curve at half-maximal effect.
# Under each structure: Cruzain inh Det, NS1 inh, 2A StopGo, Lassa entry inh, RE007 growth inh, Cruzain noTriton, SARS PLP yeast, MARV entry inh
CCN1CC(CN(C)Cc2cn(-c3cccc(C)c3)nc2-c2cccc(F)c2)CC1=O (stereo unspecified)
    nt, -7%, 8%, nt, 5%, nt, -1%, nt
CCCCn1c(N)c(N(CC)C(=O)CSCC(=O)Nc2ccc(OC)cc2)c(=O)[nH]c1=O
    nt, nt, -4%, 9%, 9%, nt, 5%, ?
CCCNc1ccc(-c2nc(-c3ccco3)no2)cc1[N+](=O)[O-]
    -2.7%, nt, 21%, 5%[46.1 µM], nt, 18%, nt, ?
COc1cc(C2=NOC(C(=O)NC3CCCCC3)C2)cc(OC)c1OC (stereo unspecified)
    5.0%, -6%, 0%, -5%, 5%, 1%, 5%, 2%
COc1ccc(NC(=O)Nc2ccc3c(c2)CCC3)cc1
    nt, 0%, 27%, 28%[46.1 µM], -5%, nt, 3%, ?
Cc1cc(C(=O)OCC(=O)NCc2ccco2)c(C)n1-c1ccc(F)cc1
    -16%, -17%, ?, 10µM*, -16%, 2%, -15%, ?
Cc1nn(Cc2ccccc2)c(C)c1C(=O)OCC(=O)NC1CCS(=O)(=O)C1 (stereo unspecified)
    -1.4%, 11%, -9%, 3%, -11%, ?, -7%, ?
CCCCCCCCOc1ccc(C2CC(=O)NC2=O)cc1 (stereo unspecified)
    nt, -25%, -7%, nt, 6%, nt, -14%, nt
COc1ccc(OC)c(NC(=O)Cn2ccn(-c3ccc(F)cc3)c(=O)c2=O)c1
    -2.1%, nt, -4%, -3%[46.1 µM], nt, ?, nt, nt
COc1ccc(-c2cc(C(=O)N3CCCCC3)c3ccccc3n2)cc1OC
    nt, -9%, -11%, ?, 19%, nt, -2%, -11%[46.1 µM]
N#Cc1ccccc1NS(=O)(=O)c1ccc(N2CCCCS2(=O)=O)cc1
    0.0%, nt, 0%, -4%[46.1 µM], nt, 10%, nt, nt
COc1cccc(OC)c1C(=O)Nc1cccc(-c2ccc(N3CCOCC3)nn2)c1
    nt, nt, -9%, 30%, -14%, nt, 1%, 5%[46.1 µM]
CCOC(=O)N1CCN(C(=O)CSCc2ccccc2Cl)CC1
    -2.9%, -3%, 0%, ?, 0%, 9%, 12%, ?
CCn1cnc2cc(NCc3cccs3)ccc21
    nt, -7%, -13%, -5%[46.1 µM], -12%, nt, -2%, ?
CCOC(=O)N1CCN(S(=O)(=O)c2ccc(C(=O)NNc3nc4c(C)cc(C)cc4s3)cc2)CC1
    -2.4%, 4µM*, -16%, ?, 6%, -4%, ?, ?
O=C(Cn1nc2c(cc1=O)CCCC2)NCc1ccccc1
    -1.2%, nt, 24%, -17%[46.1 µM], nt, 8%, nt, nt
CCCN(CCC)C(=O)C1CCN(c2cc(C)nc3c(-c4ccc(Cl)cc4)c(C)nn23)CC1
    2.0%, nt, -23%, 1%[46.1 µM], nt, -5%, nt, 2%[46.1 µM]
COc1ccc(NS(=O)(=O)c2cc(NC(=O)c3cnccn3)ccc2N2CCCC2)cc1
    -4.4%, 16%, 43%[activator], -27%, -1%, 3%, 22%, -11%
COc1ccc(NC(=O)c2ccco2)cn1
    nt, -1%, 19%, 8%[46.1 µM], -9%, nt, 0%, ?
O=C(CCCN1C(=O)c2ccccc2C1=O)Nc1ccc(S(=O)(=O)N2CCCCC2)cc1
    1.4%, 10%, -7%, 24%, -7%, 2%, 3%, 0%

# Additional structures.
# Under each structure: Cruzain inh Det, NS1 inh, 2A StopGo, Lassa entry inh, RE007 growth inh, Cruzain noTriton, SARS PLP yeast, MARV entry inh
S=C(Nc1ccccc1)Nc1nc2ccccc2n1CCOc1ccccc1
    4.4%, -21%, 25%, -10%, -12%, 10µM*, 28%, ?
CCOc1ccccc1CNS(=O)(=O)c1cnc(N)nc1
    1.3%, nt, -13%, 19%[46.1 µM], nt, -7%, nt, nt
c1ccc(CCSc2nccn2-c2ccccc2)cc1
    -6.9%, 1%, 27%, 7%, -16%, 5%, 15%, ?
Cc1nc(-c2cc(C#N)c(=O)[nH]c2C)cs1
    nt, 4%, -5%, ?, 0%, nt, 2%, -16%
COc1ccc(N(C(=O)c2ccccc2C)S(=O)(=O)c2ccc(Cl)cc2)cc1
    0.7%, nt, -15%, ?, nt, -16%, nt, nt
O=c1c2ccccc2n(Cc2cccc(Cl)c2)c(=O)n1Cc1ccccc1
    -2.3%, nt, -27%, 17%[46.1 µM], nt, 2%, nt, -17%[46.1 µM]
COc1ccc(NC(=O)c2cc(-c3ccco3)nc3ccccc23)cc1
    nt, nt, -13%, ?, 0%, nt, nt, ?
Cc1ccc(N2CCN(CC3CC=CCC3)CC2)cc1 (stereo unspecified)
    7.0%, 7%, 10%, -9%[14.3 µM], 0%, 1%, 0%, -17%
COc1ccc(C(NC(=O)c2cc(OC)ccc2OC)c2ccccc2)cc1 (stereo unspecified)
    nt, -13%, 0%, ?, 7%, nt, -8%, ?
COc1cc(/C=C2/C(=O)NN(c3ccc(Cl)cc3)C2=O)cc(Br)c1O
    nt, ?, -30%, -3%[46.1 µM], -27%, nt, 4%, -20%[46.1 µM]
COc1ccc(NC(=S)NCc2ccc(S(N)(=O)=O)cc2)c(OC)c1
    2.8%, 6%, -4%, 12%, 4%, 12%, 12%, ?
COc1ccc(CNc2cc(NCCCO)c([N+](=O)[O-])c3nonc23)cc1
    nt, nt, -30%, -7%[46.1 µM], -19%, nt, 0%, ?
COc1ccc(OCCC(=O)c2ccc(OC)cc2)cc1
    nt, -5%, 28%, 26%, -13%, nt, 1%, -12%[46.1 µM]
CN(C)CCN(C(=O)c1ccc2c(c1)OCCO2)c1nc2cc3c(cc2s1)OCO3
    nt, 12%, -16%, 20%, -16%, nt, 1%, -20%
CCn1c(SCC(=O)N2CCOCC2)nc2sc3c(c2c1=O)CCCC3
    -1.2%, 6%, ?, -21%, -23%, ?, 3%, nt
CCc1ccc(NC(=O)N2CCC(N3CCN(Cc4ccc(C)cc4)C(=O)C3=O)CC2)cc1
    2.6%, nt, -16%, 19%[46.1 µM], nt, 14%, nt, nt
Cc1cc2[nH]c(=O)c(=O)[nH]c2cc1S(=O)(=O)NCc1ccccc1
    nt, 0%, -11%, nt, 3%, nt, -1%, nt
O=C(Nc1ccccc1-c1ccccc1)c1cc(C(F)(F)F)cc(C(F)(F)F)c1
    -1.0%, -3%, -9%, -2%, 34%, -1%, -2%, 11%
Cc1nn(-c2ccccn2)c2nc(-c3cccs3)cc(C(=O)N3CCOCC3)c12
    -17%, -14%, -21%, 17%, 12%, 21%, 0%, 3%
Cc1c(C)n2c(SCC(=O)Nc3cccc4ccccc34)nnc2[nH]c1=O
    nt, nt, -13%, 0%, 2%, nt, -3%, 4%[46.1 µM]

# The listing continues.
# Under each structure: Cruzain inh Det, NS1 inh, 2A StopGo, Lassa entry inh, RE007 growth inh, Cruzain noTriton, SARS PLP yeast, MARV entry inh
Cc1ccc(N2CCN(C(=O)c3cnn(-c4ccc(C)c(C)c4)c3C3CCNCC3)CC2)c(C)c1
    -1.5%, nt, -13%, ?, nt, -11%, nt, nt
Cc1ccccc1C(=O)Nc1ccccn1
    1.9%, -4%, 17%, ?, -6%, 12%, nt, 19%
O=C(c1cccn2c(=O)c3ccccc3nc12)N1CCC2(CC1)OCCO2
    -2.2%, -8%, 1%, 3%, -4%, -1%, 3%, ?
CCOc1ccccc1C(=O)N(Cc1ccco1)Cc1ccccc1F
    -8.7%, nt, -13%, 10%[46.1 µM], nt, 3%, nt, -1%[46.1 µM]
CNC(=O)c1ccc(Nc2nnc(C)c3ccccc23)cc1
    -6.9%, 11%, 10%, 0%, -1%, 10%, 22%, 13%
CCOC(=O)c1ccc(NC(=O)COc2ccccc2CNCCc2ccccc2)cc1
    nt, -4%, -26%, nt, -8%, nt, -2%, nt
CNc1nc(N)c([N+](=O)[O-])c(NCCO)n1
    -9.1%, 4%, -1%, ?, 7%, -24%, -3%, -17%
COc1ccc(-c2ccc(-c3nnn(CC(=O)N4CCOCC4)n3)cc2)cc1
    -6.5%, 1%, 48%[activator], ?, 4%, 7%, 11%, 22%
CCOC(=O)c1cnc(NCc2ccccc2OC)c2ccccc12
    -12%, nt, 11%, 6%[46.1 µM], nt, -7%, nt, nt
CC1CCCN(C(C(=O)Nc2ccc3c(c2)OCCO3)c2ccccc2)C1 (stereo unspecified)
    4.5%, -8%, 0%, -6%, -5%, -6%, 3%, -4%
O=C(COc1ccccc1-c1ccccc1)NNC(=O)NC1CCCCC1
    nt, 3%, 9%, -16%, -13%, nt, 0%, 0%[14.2 µM]
O=[N+]([O-])c1cc2c(cc1CN1CCN(c3ccc(F)cc3)CC1)OCO2
    nt, -19%, -23%, nt, -12%, nt, -3%, nt
COc1ccccc1N1CCN(C(=O)C(Sc2ccccc2)c2ccccc2)CC1 (stereo unspecified)
    -5.5%, -5%, ?, ?, -14%, 15%, -12%, 6.3µM*
COc1ccc(C(C)(C)C)cc1NC(=O)c1ccc2c(c1)SC1=NS(=O)(=O)CCN12
    nt, nt, -10%, 9%[46.1 µM], -7%, nt, -2%, 9%&9%[46.1 µM]
COc1ccc(/C(C)=N/NC(=O)c2sccc2-n2cccc2)cc1
    nt, nt, 0%, -3%[46.1 µM], 6%, nt, -9%, ?
CCOC(=O)N1CCN(C(=O)CSCc2nc(-c3ccccc3C)oc2C)CC1
    -5.0%, -16%, ?, ?, 15%, 24%, 7%, 7%
CCSC(=Nc1ccccc1)C1=C(O)COC1=O
    2.6%, 2%, -12%, 1%, -19%, -5%, -3%, -4%[46.1 µM]

# Screening results: PubChem BioAssay, National Center for Advancing Translational Sciences (NCATS)
